Compound activity deposited in PubChem by several laboratories.
FPR binder – binds the human formylpeptide receptor FPR. FPR-expressing cells, fluorescent ligand binding, flow cytometry. 0.74% of 24,000 active. inhibition, %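 (tested at 6.7 µM)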. AID 440. P21462;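 note: 0% = buffer wells and 100% = receptor blocker peptide wells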
Target sequence (P21462 whole entry, looked up): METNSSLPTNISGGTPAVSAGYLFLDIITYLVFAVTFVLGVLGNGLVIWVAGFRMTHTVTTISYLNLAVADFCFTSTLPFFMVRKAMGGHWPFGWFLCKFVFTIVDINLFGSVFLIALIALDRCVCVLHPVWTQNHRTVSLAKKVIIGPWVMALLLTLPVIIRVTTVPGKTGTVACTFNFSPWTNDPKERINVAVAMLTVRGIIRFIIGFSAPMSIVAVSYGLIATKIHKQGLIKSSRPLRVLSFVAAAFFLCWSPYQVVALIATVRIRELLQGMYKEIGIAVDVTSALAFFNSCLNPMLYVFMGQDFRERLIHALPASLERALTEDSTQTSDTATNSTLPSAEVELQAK
VCAM-1 down imaging – suppression of endothelial VCAM-1 upregulation – imaging, high-content imaging, pooled HUVEC, TNFa stimulus (AID 456); HUVEC TNFa-induced VCAM-1 surface expression, immunofluorescence imaging; numbers were filed only for top-ranked candidate wells; inhibition, % at 5 µM, or IC50 in µM where a hit was titrated; 0.2% of 10,000 active;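 active = top tenth filtered wells with inhibition above zero that passed visual or statistical confirmation; inactive = the rest, including hits rejected on review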;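 note: 0% = stimulated vehicle wells and 100% = unstimulated cells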
VCAM-1 up imaging – enhancers of VCAM-1 display on endothelial cells, imaging, high-content imaging, pooled HUVEC, TNFa stimulus (AID 457) | Pooled HUVEC, TNFa-induced VCAM-1 immunofluorescence imaging; hits of this screen are not shown here | calls only | 0.2% of 10,000 active;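 active = a top-ranked rise in VCAM-1 staining upheld on image or statistical review; inactive = the rest, including candidates rejected on review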;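 note: compounds tested at 5 µM in the well; cells exposed to compound for 24 hours before fixing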
FPRL1 ligand – ligands of human FPRL1, also counter-screen for FPR ligands; FPRL1-expressing cells, fluorescent ligand binding inhibition, flow cytometry; 0.3% of 24,000 active; P25090; inhibition, %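 (tested at 6.7 µM)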;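 note: 0% = buffer alone and 100% = receptor blocker peptide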
Target sequence (P25090 whole entry, looked up): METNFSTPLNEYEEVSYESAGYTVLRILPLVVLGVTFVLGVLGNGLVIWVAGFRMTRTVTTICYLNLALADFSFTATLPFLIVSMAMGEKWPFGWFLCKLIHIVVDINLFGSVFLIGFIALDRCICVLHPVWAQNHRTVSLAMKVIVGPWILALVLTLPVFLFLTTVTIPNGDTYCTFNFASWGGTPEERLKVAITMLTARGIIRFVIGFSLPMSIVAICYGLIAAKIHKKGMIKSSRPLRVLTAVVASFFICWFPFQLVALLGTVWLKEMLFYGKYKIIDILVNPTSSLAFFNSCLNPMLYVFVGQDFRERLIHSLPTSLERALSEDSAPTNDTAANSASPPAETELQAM
VCAM-1 down – suppression of endothelial VCAM-1 upregulation – cell-based, plate reader, pooled HUVEC, TNFa stimulus (AID 454); HUVEC TNFa-induced VCAM-1 surface immunofluorescence, plate reader; numbers were filed only for top-ranked candidate wells; inhibition, % at 5 µM; 0.2% of 10,000 active;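 active = compound among top-ranked inhibitors of TNF-induced VCAM-1 adhesion protein staining, with the hit upheld by image or statistical review; inactive = the rest, including hits rejected on review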;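 note: 0% = TNFa with vehicle and 100% = cells without TNFa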
Numbers without * were called inactive; i = inactive; ? = inconclusive; · = no result given.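 Rule for the calls, unless noted: active = mean above 30%; inconclusive = self-fluorescent; inactive = the rest.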

canonical_smiles	FPR binder	VCAM-1 down imaging	VCAM-1 up imaging	FPRL1 ligand	VCAM-1 down
O=S(=O)(c1ccccc1)c1nc(-c2cccs2)oc1NCC1CCCO1 (stereo unspecified)	10	i	i	3	i
COc1ccccc1CNS(=O)(=O)c1ccc2c(c1)oc(=O)n2C	-1	·	·	7	·
CC1CN(C(=O)Nc2ccc3snnc3c2)c2ccccc21 (stereo unspecified)	-2	·	·	2	·
CCOCCCNc1ncnc2c1[nH]c1ccccc12	-6	i	i	0	i
Cc1ccc(C)c(N2CCN(C(=O)C3CCN(S(=O)(=O)c4cccc5nsnc45)CC3)CC2)c1	-3	·	·	-5	·
Oc1ccc2cccnc2c1	0	i	i	4	i
O=C1CN(C(=O)c2ccco2)C(c2ccc(F)cc2)c2cc(Cl)ccc2N1 (stereo unspecified)	11	·	·	5	·
CCCN1Cc2cccc(C(=O)NC3CCCC3)c2C1=O	7	i	i	2	i
O=C(CN1C(=O)CCS(=O)(=O)c2ccccc21)NCc1ccc2c(c1)OCO2	-2	·	·	2	·
C/C(=N\O)C(=O)NCC1CCNCC1	-6	·	·	-4	·
CCCS(=O)(=O)N1CCCC(C(=O)NC2CCCCC2)C1 (stereo unspecified)	-7	·	·	2	·
Nn1c(SCc2csc(-c3ccccc3)n2)nnc1-c1cccs1	13	i	i	12	i
C=CCNc1oc(-c2cccc3ccccc23)nc1C#N	7	i	i	-1	i
O=C(c1noc2c1CCCC2)N1CCN(Cc2ccccc2)CC1	4	·	·	3	·
Nc1nnc(SCC(=O)N2CCc3ccccc32)n1-c1ccccc1	19	i	i	6	i
O=C(NCCCN1CCOCC1)c1cc2c(=O)[nH]c3ccccc3c2s1	6	·	·	-9	·
COc1ccc(OC)c(N(CC(=O)Nc2cccnc2)S(=O)(=O)c2ccc(OC)c(OC)c2)c1	22	i	i	-3	i
CCOC(=O)N1CCN(c2c(NCC3CCCO3)c(=O)c2=O)CC1 (stereo unspecified)	9	·	·	1	·
C=CCOC(=O)c1[nH]c2c(c1C)C(=O)CC(c1cc(OC)c(OC)c(OC)c1)C2 (stereo unspecified)	2	·	·	3	·
Cc1nc(CNS(=O)(=O)c2cc(C)c(C)cc2C)cs1	3	i	i	0	i
O=C(c1cc(-c2ccncc2)nc2ccccc12)N1CCN(c2ccc(N3CCOCC3)nn2)CC1	2	·	·	-4	·
Cc1ccc2c(c1)NC(=O)C(CC(=O)O)O2 (stereo unspecified)	1	·	·	9	·
Nc1nc(-c2ccc(Cl)cc2)nn1C(=O)c1cccnc1	-2	i	i	6	i
CC1=C(C(=O)NC(C)c2ccc3c(c2)OCCO3)C2(CCC(C)CC2)OC1=O (stereo unspecified)	14	·	·	-4	·
Cc1cc(NCCN2CCCCC2)n2c(nc3ccccc32)c1C#N	-9	i	i	3	i
CC(=O)N1CCC2(CC1)CC(=O)c1cc(OCC(=O)NCc3ccc(C)cc3)ccc1O2	1	i	i	1	i
CCn1cnc2sc(C(=O)N(Cc3ccc(N(C)C)cc3)Cc3ccco3)c(C)c2c1=O	2	·	·	1	·
Cn1c(=O)c2c(-c3ccccc3)n(-c3ccccc3O)cc2n(C)c1=O	13	·	·	4	·
O=C(CCN1C(=O)C2C3C=CC(C3)C2C1=O)Nc1ccc2c(c1)OCO2 (stereo unspecified)	-3	·	·	9	·
CCOc1ccc(S(=O)(=O)N2CCN(Cc3ccccc3)CC2)c2cccnc12	-5	·	·	-6	·
COc1cc(NC2c3ccccc3C(=O)N2c2ccc(C)cn2)cc(OC)c1OC (stereo unspecified)	4	i	i	1	i
CCOC(=O)N1CCC(NC(=O)c2cc(C)c3c(C)nn(-c4ccccc4)c3n2)CC1	2	·	·	-1	·
CC(C)NCC(O)COc1c(F)cc(Br)cc1F (stereo unspecified)	-7	·	·	3	·
CCC(=O)NC1(C(F)(F)F)C(=O)NC(C)=C1C#N (stereo unspecified)	8	i	i	0	i
CSc1cc(C)nc(NC(C)=O)n1	-10	·	·	1	·
CCCCn1cnc2c(c1=O)c1nc3ccccc3nc1n2Cc1ccc2c(c1)OCO2	-2	i	i	-5	i
COc1cc2c(cc1OC)C1=C(C#N)CN(C3CCCCC3)CN1CC2	-15	·	·	-7	·
CCOc1ccc(N(CC(=O)Nc2ccc(C)cc2)S(=O)(=O)c2c(C)noc2C)cc1	4	·	·	-2	·
COc1ccc(-c2[nH]nc3c2C(c2ccccc2OC(=O)N2CCOCC2)C(C#N)=C(N)O3)cc1 (stereo unspecified)	6	i	i	1	i
Cc1cc(C)cc(NC(=O)CSc2nnc(Cc3cccn3C)n2-c2ccc(F)cc2)c1	-1	i	i	-4	i
COC(=O)c1ccc(C(=O)OC)c(NC(=O)Nc2ccc3c(c2)OCO3)c1	-1	i	i	4	i
Cc1cc(C)n(Cc2nc3ccccc3n2C)n1	5	i	i	2	i
CC1Cc2cc(/C(O)=C3/C(=O)C(=O)N(CCCn4ccnc4)C3c3cccnc3)ccc2O1 (stereo unspecified)	-7	·	·	-2	·
CCOCCCNC(=O)C1CCN(S(=O)(=O)N(CC(C)C)CC(C)C)CC1	-2	i	i	0	i
C=CCn1c(/N=C/c2ccc(N(C)C)cc2)nc2ccccc21	?	·	·	?	·
O=C(N1CCN(Cc2ccccc2)CC1)C12CC3CC(CC(C3)C1)C2	6	i	i	-5	i
CC(C)(CC(=O)N1CCN(c2ccc(Cl)cc2)CC1)CC1=NS(=O)(=O)c2ccccc2N1	5	·	·	7	·
O=C(NCc1ccc(Cl)cc1)c1cc(-c2ccco2)on1	16	·	·	10	·
Cc1cc2ccccc2c(=O)n1CC(=O)NC1CCCCCC1	-2	·	·	4	·
Cc1ccnc(NS(=O)(=O)c2ccc(NC(=O)C3CCCNC3=O)cc2)n1 (stereo unspecified)	20	·	·	10	·

Continued.
canonical_smiles	FPR binder	VCAM-1 down imaging	VCAM-1 up imaging	FPRL1 ligand	VCAM-1 down
COC(=O)c1sc2ccccc2c1NC(=O)c1cccs1	-2	i	i	0	i
CCn1cc(S(=O)(=O)CC(=O)Nc2ccc(C)cc2)c2ccccc21	4	·	·	8	·
C[C@]12CC[C@@H]3c4ccc(O[C@@H]5O[C@H](C(=O)O)[C@@H](O)[C@H](O)[C@H]5O)cc4CC[C@H]3[C@@H]1C[C@@H](O)[C@@H]2O	0	i	i	-3	i
COc1ccc(CC(=O)NCc2cn3ccsc3n2)cc1	3	·	·	3	·
CC1=C(C)CC(C(=O)c2ccccc2)C(C(=O)O)C1 (stereo unspecified)	0	·	·	-8	·
Cc1cc2nc(C)n(CCCN)c2cc1C	0	·	·	-6	·
COc1ccc(OC)c(CCNC(=O)CN2C(=O)CC(C)(C)S(=O)(=O)c3ccccc32)c1	-4	·	·	5	·
CC(CCc1ccccc1)NC(=O)c1ccc(Br)o1 (stereo unspecified)	-4	i	i	-4	i
CC(C)(C)n1nnnc1C(c1cccc(C#N)c1)N1CCC(Cc2ccccc2)CC1 (stereo unspecified)	-5	i	i	-2	i
COC(=O)CCC(=O)N1CCc2cc(S(=O)(=O)N3CCc4ccccc43)ccc21	-13	·	·	2	·
Cc1ccc(S(=O)(=O)C2(C(=O)NCc3ccc4c(c3)OCO4)CC2)cc1	3	·	·	8	·
COc1ccc(NC(=O)C2CCCN2S(=O)(=O)c2ccc3c(c2)CCC(=O)N3)cc1 (stereo unspecified)	0	·	·	3	·
CCOC(=O)c1cccc(NC(=O)C2CCCN(S(=O)(=O)c3cnc[nH]3)C2)c1 (stereo unspecified)	2	·	·	-1	·
COc1ccccc1CNC(=O)CC(NS(=O)(=O)c1ccc(C)cc1)c1ccco1 (stereo unspecified)	0	·	·	-1	·
CC(=O)NC(=O)NC1CSCC1OC(C)=O (stereo unspecified)	-7	i	i	-2	i
O=c1cc(CO)oc(CN2CCC(Cc3ccccc3)CC2)c1O	-9	·	·	2	·
COCCn1nnnc1CN(Cc1cccnc1)Cc1cc2cc(OC)ccc2[nH]c1=O	-4	i	i	0	i
COC(=O)c1nc2n(n1)C(c1cccc(Cl)c1)C1=C(CC(C)(C)CC1=O)N2 (stereo unspecified)	-6	·	·	-4	·
Cn1c(Cn2c(=O)sc3ccccc32)nnc1SCC(=O)NCC1CCCO1 (stereo unspecified)	-4	·	·	0	·
O=C(CN1CCN(C(=O)c2ccco2)CC1)Nc1ccc(Cl)c(C(F)(F)F)c1	2	·	·	2	·
COc1ccccc1NC(=O)CSc1nnc(Cc2cc(=O)[nH]c(=O)[nH]2)n1-c1ccccc1	-4	·	·	6	·
NCCCCCc1nnc(SC/C=C/c2ccccc2)o1	-9	i	i	-2	i
O=C(Nc1ccc(Cl)cc1)N1CCN(c2ccc3nnc(-c4ccc(F)cc4)n3n2)CC1	2	·	·	-4	·
S=C(c1ccc(N2CCOCC2)cc1)N1CCCCC1	-10	i	i	2	i
CCCC1CCC(C(=O)Nn2c(C)nc3ccccc3c2=O)CC1 (stereo unspecified)	1	i	i	3	i
CCOC(=O)c1cccc(NC2c3ccccc3C(=O)N2Cc2ccco2)c1 (stereo unspecified)	0	i	i	-5	i
Cc1nn(Cc2ccccc2Cl)c(C)c1N	-6	·	·	4	·
COc1ccccc1NC(=O)CN1CCN(CC(=O)Nc2ccc(Cl)c(C(F)(F)F)c2)CC1	-3	·	·	-12	·
CCN(CCNC(=O)Nc1ccc(Cl)cc1)c1ccccc1	-2	·	·	8	·
COc1ccc(N2C(=O)CCC(C(=O)NCc3ccccn3)C2c2ccc(OC)c(OC)c2)cc1 (stereo unspecified)	0	·	·	2	·
Cc1ccc(-c2noc(-c3ccccc3C(=O)NCC3CCCO3)n2)cc1 (stereo unspecified)	-5	i	i	1	i
CC1Cc2nc(SCC(=O)Nc3ccc4c(c3)OCO4)n(Cc3ccccc3)c(=O)c2S1 (stereo unspecified)	3	·	·	-6	·
CCOC(=O)C1CCN(Cc2ccc(OC)c(C)c2OC)CC1	-4	i	i	2	i
CCn1c(=O)cc(OCC(=O)NCc2ccc(C)o2)c2ccccc21	-1	·	·	-2	·
O=C(Cn1cc2c(n1)CCCC2)NCCCN1CCCC1	-6	·	·	0	·
COC(=O)c1cc(-c2c(C)oc3cc(OC)ccc3c2=O)c(C)o1	-4	·	·	2	·
COc1ccc(N(CC(=O)NCc2cccs2)S(=O)(=O)c2c(C)n[nH]c2C)cc1	2	·	·	-4	·
CC(=O)N1CCN=C1SCc1ccc(F)cc1	5	·	·	5	·
CCOC(=O)N1CCN(C(=O)COc2ccc(S(=O)(=O)NC3CCCCC3)cc2C)CC1	6	i	i	-4	i
CCOC(=O)c1cccc(NC(=O)c2ccco2)c1	0	i	i	6	i
CCOC(=O)CSC1=C(C#N)C(=O)NC(c2ccc(OC)c(OC)c2)S1 (stereo unspecified)	14	i	i	6	i
Cc1csc(NC(=O)Nc2cccc(Cl)c2)n1	0	i	i	-1	i
O=C1c2ccccc2-c2nccnc21	4	·	·	11	·
O=C(O)c1ccc(NS(=O)(=O)c2ccc3c(c2)OCCO3)cc1	-6	·	·	-5	·
FC(F)Sc1nnc(-c2cccs2)n1-c1ccccc1	0	i	i	0	i
CCOc1ccc(CCNC(=O)C2CCN(c3ccc(N4CCOCC4)nn3)CC2)cc1OCC	-9	·	·	-18	·
COC(=O)C1=C(C)Nc2ccc(C)cc2S1	-5	·	·	-7	·
Nn1cc(-c2ccccc2)nc1SCC(=O)N1CCN(S(=O)(=O)c2ccccc2)CC1	-2	i	i	1	i
Cn1c(Cc2ccccc2)nnc1SCC(=O)N1CCOCC1	26	i	i	13	i
Cc1ccccc1OCCn1c(=O)oc2ccccc21	0	i	i	-9	i

Complete entries as entered above. Order of values: FPR binder	VCAM-1 down imaging	VCAM-1 up imaging	FPRL1 ligand	VCAM-1 down
`O=C1c2ccccc2-c2nccnc21` in the list: 4	·	·	11	·
`COC(=O)C1=C(C)Nc2ccc(C)cc2S1` in the list: -5	·	·	-7	·
`CCOC(=O)CSC1=C(C#N)C(=O)NC(c2ccc(OC)c(OC)c2)S1` (stereo unspecified) in the list: 14	i	i	6	i
`FC(F)Sc1nnc(-c2cccs2)n1-c1ccccc1` in the list: 0	i	i	0	i

Only part of the results is shown; the hit share may differ from the screen's.
